From PubChem
Sa RN4220 lethal = kills Staphylococcus aureus RN4220; S. aureus RN4220 growth, OD600, 16 h; inhibition, % (test concentration not listed); 330,000 compounds, 0.33% hits; AID 1259311;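 active means z-score of -3 or lower and OD600 up to 0.18 on both plates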;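 further: plate controls were untreated cells for no effect and reference antibiotic for full effect; stock transfer was 100 nL into about 80 µL; one replicate is shown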
PrP 5UTR inh = suppresses PrP 5' UTR mRNA reporter expression | cell-based PrP 5' UTR mRNA reporter, plate reader | inhibition, % (test concentration not listed) | 340,000 compounds, 0.35% hits | AID 488862;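 active means every replicate at 50% or more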;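 further: 0 = median of the neutral control wells; tested in H4 reporter cells; numbers are from one replicate; inactives centre near -14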
Sa ugtP lethal = growth inhibition of S. aureus ugtP deletion strain | S. aureus RN4220 ugtP deletion, OD600 growth, 16 h; some inactives read as strong as hits | growth inhibition, % (test concentration not listed) | 330,000 compounds, 0.54% hits;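 active means z-score under -3 and OD600 up to 0.15 on both plates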;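 further: plate controls were untreated wells for no effect and antibiotic for full effect; wells of about 80 µL received 100 nL stock; the first replicate is given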
BJeLR viability = BJeLR cell viability loss; BJeLR (HRASV12) viability, CellTiter-Glo ATP luminescence, 48 h; reference of the scale not given here; inhibition, % (no concentration beside the values); 300,000 compounds, 0.17% hits; AID 1554;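 active means replicate mean above 50%; inconclusive means above 50% but judged a plate artefact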;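 further: 50 nL library stock added to about 25 µL; numbers are from one replicate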
Mtb hypoxia inh = Mtb hypoxia fluorescent reporter inhibition; M. tuberculosis hypoxia-regulated fluorescent reporter, fluorescence; 300,000 compounds, 0.1% hits; fluorescence inhibition, % (concentration not given with the values); AID 1159583;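 active means 35 to 45% if threefold the growth effect, above 45% if 1.5-fold the growth effect; inactive means the rest, general growth blockers included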;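 further: wells of about 50 µL received 100 nL stock; 0% = vehicle wells and 100% = reference inhibitor wells; whole bacteria with a GFP reporter of the hypoxia response; strong numbers were not always called active; many hits fall short of the cut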
Bead autofluor = flagged as autofluorescent in microsphere protease counterscreen; fluorescence intensity (concentration not given with the values); compound autofluorescence counterscreen, microsphere flow cytometry; active compounds read high; 360,000 compounds, 3.1% hits;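 active means at least 3 SD above the mean of all compounds, about 16000 in these data; inconclusive means too few beads counted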;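 further: 100 nL of 1 mM stock went into each well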
Mtb hypoxia inh growth = further read-out of Mtb hypoxia inh, marked with its call; growth inhibition, %; measured here: M. tuberculosis growth (absorbance);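 0% = vehicle and 100% = reference antibiotic; read after six days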
The depositor's hits bear a star; ? = inconclusive; / = not tested or not shown; & = joins results of further samples.

Every second line gives: Sa RN4220 lethal | PrP 5UTR inh | Sa ugtP lethal | BJeLR viability | Mtb hypoxia inh | Mtb hypoxia inh growth | Bead autofluor
1. COc1ccccc1N(CC(=O)Nc1ccc(C(F)(F)F)cc1)S(C)(=O)=O
 : -1.1 | -13 | -1 | 9 | -4 | 6 | 4878
2. CC(=O)c1cn(N2CCCCC2)c(=O)[nH]c1=O
 : -0.7 | / | 7 | 18 | 3 | -9 | 3239
3. NC(=O)c1[nH]cnc1N
 : 5.7&1.9 | -10&-11 | -4&0 | 4&1 | -14&8 | -6&7 | 5849&6024
4. COCc1c(C(=O)OCC(=O)N(C)C2CCS(=O)(=O)C2)oc2ccccc12 (stereo not drawn)
 : 3.7 | -23 | 4 | / | 4 | 3 | 3841
5. COc1ccc(NCc2cccnc2)cc1
 : 3.8 | -21 | 4 | -5 | -2 | 3 | 3486
6. CCOC(=O)N1CCN(C(=O)c2cc3c(ccc4ccccc43)oc2=O)CC1
 : -0.5 | -12 | 1 | -3 | / | / | 2269
7. C[C@H]1CN([C@@H](C)CO)C(=O)c2cccc(NC(=O)C3CC3)c2O[C@H]1CN(C)C(=O)Nc1ccc2c(c1)OCO2
 : 9.0 | -19 | 1 | / | -18 | 12 | 4181
8. Cc1cc(C)cc(C(=O)N(Cc2ccco2)c2c(N)n(Cc3ccccc3)c(=O)[nH]c2=O)c1
 : 1.2 | -11 | 2 | / | 10 | -3 | /
9. CCN1C(=O)CCCc2ccccc21
 : -3.3 | -25 | -1 | 0 | 2 | 7 | 4307
10. CC(C)(C)CC(=O)O/N=C(\N)c1ccncc1
 : 0.0 | -17 | -1 | -3 | 14 | 6 | 3814

The last 3 compounds of the part above are carried over, then new ones follow:
Every second line gives: Sa RN4220 lethal | PrP 5UTR inh | Sa ugtP lethal | BJeLR viability | Mtb hypoxia inh | Mtb hypoxia inh growth | Bead autofluor
8. Cc1cc(C)cc(C(=O)N(Cc2ccco2)c2c(N)n(Cc3ccccc3)c(=O)[nH]c2=O)c1
 : 1.2 | -11 | 2 | / | 10 | -3 | /
9. CCN1C(=O)CCCc2ccccc21
 : -3.3 | -25 | -1 | 0 | 2 | 7 | 4307
10. CC(C)(C)CC(=O)O/N=C(\N)c1ccncc1
 : 0.0 | -17 | -1 | -3 | 14 | 6 | 3814
11. CCSc1nnc(-c2ccc(Cl)cc2Cl)o1
 : 14 | -37 | 10 | 14 | / | / | 8011
12. COc1cc2ccccc2cc1C(=O)NC1CCCCC1
 : 3.0 | -33 | -1 | / | / | / | 4100
13. Cc1c(Br)c([N+](=O)[O-])nn1CC(=O)Nc1sc2c(c1C(=O)OC(C)C)CCCC2
 : 5.5 | -21 | -3 | -6 | 4 | 14 | 4392
14. Cn1cnc([N+](=O)[O-])c1NC(C)(C)C
 : 0.3 | -29 | 3 | -15 | / | / | 2650
15. COc1cccc(N/C=C/C(=O)c2ccc(Cl)cc2)c1
 : 4.5 | -30 | -4 | -8 | 6 | -4 | 9102
16. COc1ccc(C)cc1NC(=O)CN(C)S(=O)(=O)c1ccc2c(c1)CC(C)N2C(C)=O (stereo not drawn)
 : 2.9 | -10 | 3 | -6 | 4 | 8 | 5322
17. N#Cc1ccccc1N1CCN(C(=O)c2ccc(NC(=O)c3ccc(Br)o3)cc2)CC1
 : 3.3 | -10 | -9 | / | 0 | -5 | 4120
18. COCCn1c(=O)c2c(nc3n2CCCN3Cc2ccccc2)n(C)c1=O
 : 1.8 | -4 | 7 | -7 | 16 | 7 | 3836
19. O=C(/C=C/c1cc(Br)ccc1F)Nc1cccnc1
 : 0.3 | -16 | -2 | -3 | -7 | 7 | 5731
20. CC(C)CC1C(C#N)=C(N)SC(N)=C1C#N
 : 6.7 | -19 | -7 | -2 | 1 | 6 | 10807
21. COc1ccc2cc(-c3[nH]ncc3CN3CCCC3c3nonc3C)ccc2c1 (stereo not drawn)
 : 7.5 | -17 | 11 | 2 | 9 | 13 | 3900
22. CN(C(=O)COC(=O)c1n[nH]c2ccccc12)C1CCS(=O)(=O)C1 (stereo not drawn)
 : 2.2 | -1 | 8 | -17 | -9 | -4 | 2646
23. O=c1c(Cl)c(Cl)cnn1Cc1ccccc1Cl
 : 1.3 | / | -4 | -4 | / | / | /
24. CCn1c(=S)sc2c(=O)n(CC(=O)Nc3ccccc3)c(C)nc21
 : -2.0 | -3 | 0 | -1 | -4 | -6 | 5326
25. COc1ccc(N2CCN(Cc3nnc(-c4ccccc4)o3)CC2)cc1
 : 0.2 | -8 | 0 | 0 | 2 | -3 | 2595
26. COc1ccccc1NS(=O)(=O)c1ccc(C(=O)N2CCCC(C)C2)cc1 (stereo not drawn)
 : 9.2 | -11 | 0 | 0 | 15 | 2 | 5980
27. COc1ccc(-c2cc(C(=O)N3CCCCCC3)c3ccccc3n2)c(OC)c1
 : -2.6 | -22 | 1 | 9 | -1 | 4 | 5203
28. CC(=O)NC(Cc1cccc(F)c1)C(=O)NC1CCN(c2nnnn2-c2ccccc2)CC1 (stereo not drawn)
 : 5.4 | -21 | 6 | -2 | 2 | -4 | 3086
29. O=c1c2cc(N3CCOCC3)ccc2[nH]c(=S)n1CCCN1CCCC1
 : 3.1 | -30 | -6 | 5 | 3 | 8 | 10120
30. CCOC(=O)c1[nH]c(CSc2nnc(-c3ccc(OC)cc3)o2)c(C(=O)OCC)c1C
 : -1.3 | -11 | 0 | 6 | / | / | 4663
31. COc1cccc(COc2cc3ccccc3nc2C)c1
 : 22 | -24 | -10 | 9 | 20 | 22 | 8730
32. COc1ccc(-n2c(Cc3cccn3C)nnc2SCC(=O)Nc2cccc(C)c2C)cc1
 : 0.3 | -23 | -1 | 13 | / | / | 6087
33. CCOc1ccc(NC(=O)C2CC=CCC2C(=O)O)cc1 (stereo not drawn)
 : 2.0 | 7 | 0 | -3 | 7 | 12 | 22332*
34. CCOC(=O)N1CCN(C(=O)COc2ccccc2OC)CC1
 : 4.3 | 2 | 6 | 4 | 2 | -8 | 8195
35. Cc1cccc(NC(=O)COc2ccc(Br)cc2/C=N/O)c1
 : / | -140 | / | 1 | / | / | 2498
36. Fc1ccc(CN2C3=NCCN3c3ccccc32)cc1
 : 1.5 | -27 | 1 | 3 | -1 | 6 | 6542
37. O=C(COC(=O)c1cc([N+](=O)[O-])ccc1NCc1ccccc1Cl)NCC(F)(F)F
 : 0.2 | -10 | -9 | 5 | 24 | 7 | 9364
38. O=C(CN1CCCC1)Nc1c(Cl)cccc1Cl
 : 6.8 | -48 | 3 | 4 | 14 | 12 | 3481
39. CCC(C(=O)NCCN1CCN(C)CC1)n1c(C)c2cnn(-c3ccccc3)c(=O)c2c1C (stereo not drawn)
 : 2.7 | -10 | 12 | -8 | 12 | 1 | 2493
40. O=C1CCCCCN1CP(=O)(O)CN1CCCCCC1=O
 : 3.0 | -32 | 4 | 0 | 2 | -4 | 4295
41. Nc1nnc(CCC2CCCCC2)s1
 : 3.3 | 3 | 2 | -1 | -5 | 3 | 9885
42. COc1cccc(N(CC(=O)NC2CCCC2)C(=O)Cn2nnc(-c3ccc(C)cc3)n2)c1
 : 0.5 | -25 | -7 | -2 | 2 | 6 | 19988*
43. Cc1ccc(C(=O)OCC(=O)Nc2cc(S(C)(=O)=O)ccc2Cl)cc1S(=O)(=O)N1CCCCC1
 : 2.0 | 2 | 5 | -8 | 3 | 6 | ?
44. CC(CCN1C(Nc2ccccc2)=NC[C@@H]1C)c1ccccc1 (stereo partly drawn)
 : / | -8 | / | 1 | / | / | 3789
45. CCS(=O)(=O)c1ccc2oc(SCC(=O)NCCc3ccccc3)nc2c1
 : 3.6 | -3 | -3 | -7 | -5 | 0 | 3352
46. COc1ccc(S(=O)CC(=O)Nc2ccc(Cl)cc2Cl)cc1 (stereo not drawn)
 : 0.7 | -36 | -5 | 3 | 15 | -1 | 4520
47. CC1CCN(S(=O)(=O)c2ccc(S(=O)(=O)NCC3COCCO3)cc2)CC1 (stereo not drawn)
 : 8.0 | -26 | -4 | 8 | 1 | 11 | 23033*
48. COc1cc(C(=O)NC(C)c2ccc(-n3ccnc3)cc2)cc(OC)c1C (stereo not drawn)
 : 2.0 | -20 | 8 | -2 | 6 | 0 | 3200
49. O=C(Cc1cccc(NC(=O)C2CCCN(C(=O)C3CCCC3)C2)c1)Nc1ccc(C(=O)N2CCOCC2)cc1 (stereo not drawn)
 : -0.5 | -12 | 1 | / | -9 | -4 | 3915
50. COc1ccc(NC(=O)N(C)C[C@H]2Oc3ccc(NC(=O)Nc4c(C)noc4C)cc3C(=O)N([C@H](C)CO)C[C@@H]2C)cc1
 : 2.9 | -48 | 6 | / | 5 | 4 | 3601
51. COc1ccc(CCN2CC(C(=O)N(C)Cc3ccc4nsnc4c3)CCC2=O)cc1 (stereo not drawn)
 : 0.9 | -6 | 1 | -1 | -2 | 7 | 5114
52. O=C(Cc1ccc(NC(=O)C2CCCN(C(=O)C3CCCCC3)C2)cc1)Nc1cccc(C(=O)N2CCCCC2)c1 (stereo not drawn)
 : 5.3 | -20 | -1 | / | -6 | 3 | 3614
53. CNC(=S)N1C2CCCC1CC(NC(=O)c1ccc(F)cc1)C2 (stereo not drawn)
 : -0.2 | -6 | 0 | -1 | 5 | -4 | 4186
54. CCN(CC)C(NC(=O)c1ccccc1)C(=O)c1ccccc1 (stereo not drawn)
 : -0.3 | -29 | -6 | -4 | / | / | 6777
55. COc1ccc(/C=N/Nc2cc(OC)ncn2)cc1
 : / | -8 | / | -7 | / | / | 2049
56. O=C1/C(=N\S(=O)(=O)c2cccs2)C([n+]2ccc(CCCc3ccccc3)cc2)=C([O-])c2ccccc21
 : 11 | / | 19 | 2 | 12 | 9 | /
57. Cc1cc(C)n2cc(CSc3nncn3C)nc2n1
 : 2.8 | -15 | -7 | 1 | 2 | 2 | 3538
58. COc1cc(CN2CCN(C(=O)Cc3ccccc3)CC2)cc(OC)c1OC
 : 7.4 | -32 | 8 | 3 | 15 | 2 | 4052
59. O=S(=O)(CS(=O)(=O)c1ccccc1)c1ccccc1
 : 4.2 | -20 | 4 | / | 16 | 12 | 3786
60. CCc1c(O)nc(SCc2ccccc2)n(C(C)CC)c1=O (stereo not drawn)
 : 2.0 | -41 | -4 | -10 | 2 | 3 | 21259*

Next results follow.
Every second line gives: Sa RN4220 lethal | PrP 5UTR inh | Sa ugtP lethal | BJeLR viability | Mtb hypoxia inh | Mtb hypoxia inh growth | Bead autofluor
61. COc1ccccc1N1CCN(C2CCCN(C(=O)c3ccnc4ccc(C)cc34)C2)CC1 (stereo not drawn)
 : / | 0 | / | 13 | / | / | ?
62. COc1ccc(-c2cc(C(=O)Nc3c(C)nn(Cc4ccccc4Cl)c3C)no2)cc1
 : 6.6 | 17 | 10 | -2 | 5 | 2 | 15712
63. CN(CCc1ccccn1)C(=O)CCC1CCCN(C(=O)c2cccc(N(C)C)c2)C1 (stereo not drawn)
 : -1.4 | -29 | -3 | 1 | -1 | 9 | 5140
64. CN(CCc1ccccc1)C(=O)c1cccc(NC(=O)Cc2cccc(NC(=O)C3CCCN(C(=O)CCc4ccccc4)C3)c2)c1 (stereo not drawn)
 : 0.5 | 1 | 0 | / | -14 | -4 | 3748
65. CN(CCc1ccccc1)C(=O)c1ccc(NC(=O)Cc2cccc(NC(=O)C3CCN(C(=O)C4CC4)CC3)c2)cc1
 : 3.3 | 6 | 9 | / | 5 | 5 | 3151
66. CN(C)S(=O)(=O)c1ccc(C(=O)Oc2cc(=O)[nH]c3ccccc23)cc1
 : 2.2 | -14 | 1 | 0 | 3 | 7 | 3176
67. Cc1nc(-c2ccccc2)cn2c1nc1ccccc12
 : 10 | -46 | -11 | -3 | 13 | 11 | 2355
68. O=C(O)c1ccc(CSc2nnc(Cc3ccccc3)o2)cc1
 : -0.8 | -25 | 9 | 6 | 8 | 4 | 16912*
69. CC(CC(=O)O)CC(=O)Nc1cc(C(F)(F)F)cc(C(F)(F)F)c1 (stereo not drawn)
 : 2.3 | -24 | 7 | 3 | 5 | 13 | 4594
70. O=C(Nc1c2c(nn1-c1ccc(F)cc1)CS(=O)C2)c1ccco1 (stereo not drawn)
 : 2.0 | -13 | 1 | -2 | -4 | -1 | ?
71. N#Cc1c2ccccc2nc2ccccc12
 : 21 | -23 | 7 | 3 | 62* | 40* | 4080
72. Cc1ccc(CN2CCN(N=Cc3cc(Br)ccc3F)CC2)cc1
 : -3.3 | / | 28 | / | -2 | 1 | /
73. Cc1nn(C)c(Oc2cccc(C(F)(F)F)c2)c1C#N
 : 5.4 | -25 | 3 | -2 | 10 | 15 | 2252
